GLA inh pH 4.5 = blocks human alpha-galactosidase A at pH 4.5; P06280; purified enzyme, 4-MU-alpha-Gal fluorescence, pH 4.5; activity change, negative = inhibition, % at 105 µM; 230,000 tested, under 10 active; AID 1467; inconclusive = small, poorly fitted or top-dose-only inhibition, or a rising curve; inactive = flat fitted curve, though single readings scatter; no compound was filed as active;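 further: 0% = full activity with enzyme and -100% = basal without enzyme; dose as in the result columns while the protocol names 77 µM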
Rango release inh = inhibition of RanGTP-driven Rango-importin beta dissociation; O95149+P62826; Biochemical FRET Rango-importin beta, RanGTP-induced dissociation; Potency, µM (titrated, usually from 46.1 µM), without a hit: at the top dose activity change, negative = inhibition; actives 0.071% (n = 340,000); AID 540253; active means falling FRET ratio curve, often poorly fitted, with flat reads before Ran was added; inconclusive means other falling curves, or compound fluorescence or quenching; inactive means flat or rising ratio curve;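 further: potency means the concentration at half of the fitted maximal effect; % of control where 0% means no effect; nearly all actives have a fitted effect of over 45% in size; -100% = wells without RanGTP and RCC1; the record marks most hits as doubtful in a second field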
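Rango FRET biosensor (snurportin-1 IBB flanked by N-terminal EYFP and C-terminal CFP10) at 0.1 uM, with 0.25 uM importin beta in PBS, 1mM DTT, 0.02% Tween-20, 0.1% BSA. 0.6 uM Ran, 2mM GTP and 0.2 uM RCC1 were then added for 45 min at room temperature. Inhibition read as loss of FRET rise.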
Rango complex inh = inhibitors of Rango-importin beta complex formation; Q14974; Rango CFP/YFP FRET sensor + importin beta, 45 min; Potency, µM (series often up to 92.2 µM), for inactives: top-dose inhibition of complex formation; actives 0.031% (n = 340,000); active = rising FRET ratio curve, often small or poorly fitted; inconclusive = mostly compound fluorescence or quenching in the first reads; inactive = flat curves in all reads;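 further: potency means the concentration at half of the fitted maximal effect; 0% = DMSO wells and 100% = buffer wells lacking importin beta; nearly all actives have a fitted effect of over 15% in size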
Target sequence (Q14974 whole entry, looked up): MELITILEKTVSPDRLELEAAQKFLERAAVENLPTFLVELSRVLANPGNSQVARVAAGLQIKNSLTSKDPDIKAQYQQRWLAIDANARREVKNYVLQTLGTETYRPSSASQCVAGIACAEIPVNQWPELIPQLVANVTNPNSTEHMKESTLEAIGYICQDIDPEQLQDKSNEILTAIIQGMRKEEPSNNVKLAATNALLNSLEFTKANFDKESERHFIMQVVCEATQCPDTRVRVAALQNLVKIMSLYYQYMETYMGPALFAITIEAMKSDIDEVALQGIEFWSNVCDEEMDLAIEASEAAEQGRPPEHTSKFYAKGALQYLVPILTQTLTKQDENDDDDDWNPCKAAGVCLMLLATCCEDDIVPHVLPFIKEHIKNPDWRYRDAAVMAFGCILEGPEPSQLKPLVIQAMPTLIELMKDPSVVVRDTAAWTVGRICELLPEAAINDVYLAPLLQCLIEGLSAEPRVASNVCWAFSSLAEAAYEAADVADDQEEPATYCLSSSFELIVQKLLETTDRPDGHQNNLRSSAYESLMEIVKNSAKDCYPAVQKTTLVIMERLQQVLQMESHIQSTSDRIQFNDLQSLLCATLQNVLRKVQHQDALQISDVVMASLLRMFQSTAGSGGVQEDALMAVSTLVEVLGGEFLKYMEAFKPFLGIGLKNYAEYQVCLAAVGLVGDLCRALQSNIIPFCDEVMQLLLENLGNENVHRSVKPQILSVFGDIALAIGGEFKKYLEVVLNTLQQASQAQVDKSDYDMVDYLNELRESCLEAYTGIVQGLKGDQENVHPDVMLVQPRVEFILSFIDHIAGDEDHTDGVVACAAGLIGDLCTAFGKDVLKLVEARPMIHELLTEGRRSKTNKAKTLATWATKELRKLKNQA
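FRET biosensor (snurportin 1 IBB flanked by EYFP and cerulean), 50 nM, with compound 5 min, then 0.125 microM importin beta in PBS, 1 mM DTT, 0.02% Tween-20, 0.1% BSA. CFP/YFP ratio read after 45 min at room temperature; pre-read flags interference.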
miR-21 FLuc = raises the signal of a miR-21 reporter. HeLa miR-21 FLuc reporter, luciferase, 48 h. Potency, µM (doses to about 38.3 µM), for inactives: at the highest dose reporter change, positive = more light. 340,000 tested, under 10 active. AID 2288; active = well fitted rising curve with a large enough effect; inconclusive = small, poorly fitted or top-dose-only effect; inactive = no such curve, though single readings can be large or run the other way;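 further: % of control where 0% means no effect; miR-21 action dims this reporter so a rising signal means less miR-21 action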
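HeLa miR-21-FLuc reporter line, endogenous miR-21; 2000 cells/well in DMEM/10% FBS; compound titration up to ~40uM final, 48 h, 37 degree Celsius; luciferase detection reagent, 15 min lysis, CCD luminescence.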
An asterisk follows results filed as active; ? = inconclusive; . = no result given; & = joins results of further samples; [ ] = another dose, or the depositor's remark.

Assay codes: A = GLA inh pH 4.5; B = Rango release inh; C = Rango complex inh; D = miR-21 FLuc
CCc1ccc2nc(/N=C(\N)NC(=O)c3ccccc3)nc(C)c2c1
  A = -13; B = 9%; C = 2.0%; D = -10%

CC(=O)c1cccc(NC(=O)CN2C=NS(=O)(=O)c3ccc(C)cc32)c1
  A = .; B = -7%; C = 0.0%; D = 5%&0%

Oc1ccc(N=Nc2ccc3c(c2)OCCO3)c2cccnc12
  A = -17; B = -3%; C = -1.6%; D = 15%

O=C(NCc1ccc(Cl)s1)C1CCC(=O)N(CCc2cccc(F)c2)C1 (stereo not drawn)
  A = .; B = -1%; C = 1.2%; D = -3%

COc1ccc(Cl)cc1-c1nc(SCC(=O)N(C)C)n[nH]1
  A = 0[21.1 µM]; B = -13%; C = -2.0%; D = 1%

O=C1c2cccc3cccc(c23)C(=O)N1CC1CCN(CC(O)COc2ccc3ccccc3c2)CC1 (stereo not drawn)
  A = 5; B = ?; C = -2.8%; D = -18%

CN(C)CCCn1c2c(c(SCC(=O)Nc3ccc4c(c3)OCO4)nc1=O)CCCC2
  A = .; B = 7%; C = -1.1%; D = .

CCOC(=O)c1cc(NC(=O)c2cccnc2)cc(C(=O)OCC)c1
  A = -8; B = 10%; C = 1.2%; D = 3%

O=C(C1=C(O)C(=O)N(c2nc3ccc(Cl)cc3s2)C1c1ccco1)c1ccco1 (stereo not drawn)
  A = .; B = 16µM*; C = ?; D = .

O=S(=O)(c1cccc(S(=O)(=O)N2CCOCC2)c1)N1CCCCCC1
  A = .; B = 15%; C = 6.2%; D = -1%

CSc1nc2ccccc2s1
  A = 1; B = 10%; C = -0.1%; D = -3%

O=C(NCCc1ccccc1)c1cccc(S(=O)(=O)NCc2ccccc2)c1
  A = .; B = -6%; C = -3.7%; D = .

CN(C(=O)c1cc(-c2ccccc2)on1)C1CCCCC1
  A = .; B = -23%; C = 2.9%; D = -80%

O=C(CN(c1ccccc1F)S(=O)(=O)c1ccccc1)N1CCCCCC1
  A = -2; B = 3%; C = -4.2%; D = -17%

CCOC(=O)C(=CNc1cc(C)ccc1C)C(=O)OCC
  A = 2; B = 1%; C = -0.3%; D = 7%

COc1ccc(C(=O)NCC(C)CN(C)C)cc1 (stereo not drawn)
  A = 8; B = -11%; C = 6.7%; D = 1%

CCn1c(C)nc2cc(S(=O)(=O)N3CCCC3)ccc21
  A = -12; B = -3%; C = 1.9%; D = 0%

CCOc1ccccc1N1CCN(C(=O)c2cn(CC3CCCCC3)nn2)CC1
  A = .; B = 7%; C = 1.8%; D = -41%

O=C(c1ccc(F)cc1)C1CCN(C(=O)NCc2ccccc2)CC1
  A = -7; B = -11%; C = -1.0%; D = 1%

O=C(CSc1ccc(Cl)cc1)N1CCN(c2c(Cl)cccc2[N+](=O)[O-])CC1
  A = -7; B = 5%; C = -0.5%; D = -3%

COc1ccc(C(=O)N/C(=C\c2ccccc2)C(=O)Nc2ccc(C(=O)O)cc2)cc1
  A = .; B = -10%; C = 2.4%; D = 0%

O=[N+]([O-])c1cccc(S(=O)(=O)N2CCCCCC2)c1
  A = 1; B = -8%; C = -0.9%; D = -13%

CCn1cc(CNC(=O)C2CCC(=O)N(Cc3ccccc3F)C2)cn1 (stereo not drawn)
  A = .; B = -1%; C = -3.8%; D = -1%

Cc1ccc(-c2csc3ncn(CC#N)c(=O)c23)cc1C
  A = .; B = 2%; C = -2.1%; D = 4%

Cn1cc(CC(=O)N2CCN(c3ccccc3F)CC2)c2ccccc21
  A = -2; B = 8%; C = 3.7%; D = -17%

Limited to Rango release inh and GLA inh pH 4.5 (three entries from above):
SMILES | Rango release inh | GLA inh pH 4.5
CCc1ccc2nc(/N=C(\N)NC(=O)c3ccccc3)nc(C)c2c1 | 9% | -13
O=[N+]([O-])c1cccc(S(=O)(=O)N2CCCCCC2)c1 | -8% | 1
Cc1ccc(-c2csc3ncn(CC#N)c(=O)c23)cc1C | 2% | .

Complete entries as entered above. Order of screens: GLA inh pH 4.5, Rango release inh, Rango complex inh, miR-21 FLuc
`CCc1ccc2nc(/N=C(\N)NC(=O)c3ccccc3)nc(C)c2c1` in the list: -13, 9%, 2.0%, -10%
`COc1ccc(C(=O)N/C(=C\c2ccccc2)C(=O)Nc2ccc(C(=O)O)cc2)cc1` in the list: ., -10%, 2.4%, 0%

Other results follow.
Assay codes: A = GLA inh pH 4.5; B = Rango release inh; C = Rango complex inh; D = miR-21 FLuc
Cc1c(C(=O)NCc2ccco2)oc2ccccc12
  A = .; B = 35%; C = 2.0%; D = -22%

CN(C)c1ccc(C2CC(=O)OC3=C2C(=O)CC(C)(C)C3)cc1 (stereo not drawn)
  A = 5; B = 4%; C = 2.3%; D = 5%

CCc1ccc(OCCCCN(C)Cc2ccccc2)cc1
  A = .; B = -2%; C = -0.5%; D = 2%

O=C(O)CCSc1nnc(SCC(=O)NC2CCS(=O)(=O)C2)s1 (stereo not drawn)
  A = .; B = 19%; C = ?; D = .

C=CCOc1ccc(CN(C)CC(O)COc2ccc(CCC(C)=O)cc2)cc1 (stereo not drawn)
  A = .; B = 15%; C = -0.8%; D = 8%

CCCCOc1ccc(C(=O)NCC(=O)NCC2CCCO2)cc1 (stereo not drawn)
  A = .; B = 14%; C = -2.5%; D = 2%

COc1cccc(S(=O)(=O)N2CCOCC2)c1
  A = -4; B = -3%; C = -3.1%; D = 0%

NS(=O)(=O)c1ccc(C(=O)Nc2ccc(-c3nc4cccnc4s3)cc2)cc1
  A = -6; B = -17%; C = -2.7%; D = -52%

Cc1sc2ncnc(SCC(=O)NNC(=O)COc3cccc4ccccc34)c2c1C
  A = -3; B = 7%; C = 0.0%; D = 0%

NC(=O)c1ccc(NC(=O)CCN=C2NS(=O)(=O)c3ccccc32)cc1
  A = .; B = 8%; C = -0.6%; D = .

CC(C)C(=O)Nc1nnc(SCC(=O)NCc2cccs2)s1
  A = -10; B = -1%; C = -0.1%; D = -3%

O=C(Nc1cccc(NC(=O)N2CCN(c3ccccc3)CC2)c1)N1CCN(c2ccccc2)CC1
  A = -3; B = 8%; C = 0.0%; D = ?

CCc1ccc(C(=O)CSc2ncn[nH]2)cc1
  A = 1; B = -4%; C = -4.9%; D = -32%

N#Cc1ccc(CN2CCN(C(=O)CN3C(=O)NC4(CCCC4)C3=O)CC2)cc1
  A = .; B = 9%; C = -0.8%; D = .

Cc1cc(/C=C(\C#N)C(=O)Nc2ccccc2)c(C)n1-c1ccc(C(=O)O)cc1
  A = -11; B = -22%; C = -0.8%; D = -2%

Cc1cc(C)c(S(=O)(=O)Nc2ccccc2C(=O)OCC(=O)NCc2ccccc2)c(C)c1
  A = -3; B = 33%; C = ?; D = -1%

CCC1S/C(=N/N=C/c2ccco2)N(Cc2ccc(F)cc2)C1=O (stereo not drawn)
  A = -11; B = 4%; C = -4.2%; D = 5%

CC1CCC(NC(=O)C2CCC(CNS(=O)(=O)c3cccc4cccnc34)CC2)CC1 (stereo not drawn)
  A = .; B = -19%; C = -2.1%; D = 0%

O=[N+]([O-])c1ccc(/C=C/C2=NN(c3ccccc3)C(c3ccco3)C2)cc1 (stereo not drawn)
  A = -6; B = ?; C = ?; D = -23%

COc1ccc(NC(=O)c2ccccc2S(=O)c2ccccc2C#N)cc1 (stereo not drawn)
  A = 5; B = 3%; C = ?; D = -1%

CC1(c2nnc(-c3cccc(Cl)c3)o2)CC(c2ccc(OC(F)(F)F)cc2)=NO1 (stereo not drawn)
  A = .; B = -6%; C = ?; D = 1%

Cc1ccc(-c2csc(NC(=O)c3ccc(-c4ccccc4)cc3)n2)o1
  A = 5; B = -3%; C = 2.8%; D = -2%

CC(NC(=O)COc1ccccc1)C(=O)NCc1ccccc1Cl (stereo not drawn)
  A = .; B = 3%; C = 3.1%; D = .

Cc1ccc2c(CC(=O)N3CCN(c4ccccc4)CC3)coc2c1
  A = 5; B = 1%; C = 0.2%; D = -11%

CCOC(=O)C1=C(C)NC(=S)NC1/C=C/c1ccccc1 (stereo not drawn)
  A = 8; B = -1%; C = -1.1%; D = 13%

COc1ccccc1-c1cnn2c(N3CCOCC3)cc(C)nc12
  A = .; B = 2%; C = -1.5%; D = -63%

CC(C)N1C(=O)CCC1C(=O)NCc1ccccc1Cl (stereo not drawn)
  A = -2; B = -10%; C = 5.0%; D = -4%

C/C(N)=C(/C#N)C(=O)COC(=O)c1cc2c(s1)CCCC2
  A = 6; B = -1%; C = -2.6%; D = -36%

O=Cc1ccc2noc(-c3ccc(Cl)cc3)c2c1
  A = 3; B = ?; C = ?; D = -32%

Cc1ccc(/C=N/NC(=O)c2ccco2)cc1
  A = 7; B = 20%; C = -3.7%; D = -39%

O=C(CNC(=O)c1ccc(Br)o1)NNC(=O)c1ccc(Br)cc1
  A = .; B = 8%; C = 6.8%; D = .

CCOC(=O)N1CCC(C(=O)Nc2ccc(OCC)cc2)CC1
  A = 8; B = -15%; C = -0.5%; D = -7%

COc1cccc(CNC(=O)CCNS(=O)(=O)c2ccc(C)cc2)c1
  A = .; B = -2%; C = 2.4%; D = .

c1ccc(-c2ccc3[nH]ccc3c2)cc1
  A = .; B = -3%; C = 0.4%; D = .

CCOc1cc(CNn2cnnc2)cc(Br)c1OCC(=O)NC(C)(C)C
  A = .; B = 8%; C = -0.1%; D = -4%

O=C(c1cn(-c2ccccc2)nc1-c1cccs1)N1CCN(c2ccccn2)CC1
  A = -12; B = -25%; C = -0.2%; D = -1%

CCCNC(=O)COC(=O)c1ccccc1C(=O)c1ccc(Cl)c([N+](=O)[O-])c1
  A = 11; B = 27%; C = 0.3%; D = ?

Cc1ccc(-c2nc(-c3cccnc3)no2)cc1
  A = 0; B = -6%; C = 0.2%; D = -45%

NC(=O)c1ccsc1NC(=O)CSc1nnc(NC2CC2)s1
  A = .; B = 1%; C = -0.3%; D = .

O=C1c2ccccc2COc2ccc(O)cc21
  A = 11; B = -8%; C = 1.2%; D = -32%

Cc1cc2c(c(N3CCOCC3)n1)C(=O)OC2
  A = 0; B = 17%; C = 0.8%; D = -1%

O=C(NC(=O)N1CCCC1)c1csnn1
  A = 0; B = 7%; C = -2.5%; D = -3%

CCOCCc1nnc(NC(=O)Cc2c(F)cccc2Cl)s1
  A = -1; B = ?; C = 0.2%; D = 4%

COc1ccc(CN(C)CC(=O)Nc2ccccc2C(=O)NC2CC2)cc1F
  A = .; B = -8%; C = -0.7%; D = .

CCCCCCOc1ccc(/C=C/C(=O)N2CCOCC2)cc1OC
  A = .; B = 9%; C = 0.2%; D = -8%

CCc1nccn1S(=O)(=O)c1cc(OC)ccc1OC
  A = .; B = -8%; C = -2.1%; D = -5%

Cc1ccc(Cn2nnc3c(=O)n(CC(=O)NCc4ccccc4)cnc32)cc1
  A = -7; B = 3%; C = -0.4%; D = 25%

Cc1ccc(OCC(=O)Nc2cccc3c2CCCC3)cc1C
  A = .; B = 1%; C = 1.2%; D = .

COc1cc(CN2CCNC(=O)C2CC(=O)O)cc(OC)c1 (stereo not drawn)
  A = -3; B = -8%; C = -0.1%; D = -2%

Cc1ccc(NC(=O)c2ccc(=O)[nH]n2)cc1C
  A = .; B = -15%; C = -1.7%; D = -67%

Cc1ccc(NC(=S)/C(=C(\[O-])c2ccc(Cl)s2)[n+]2cccc(CO)c2)cc1C
  A = -13; B = -7%; C = -1.4%; D = -49%

Arranged by molecular weight (smallest number first): 3 of the compounds above.
Assay codes: A = GLA inh pH 4.5; B = Rango release inh; C = Rango complex inh; D = miR-21 FLuc
Cc1ccc(NC(=O)c2ccc(=O)[nH]n2)cc1C
  A = .; B = -15%; C = -1.7%; D = -67%

CCOC(=O)N1CCC(C(=O)Nc2ccc(OCC)cc2)CC1
  A = 8; B = -15%; C = -0.5%; D = -7%

COc1ccccc1-c1cnn2c(N3CCOCC3)cc(C)nc12
  A = .; B = 2%; C = -1.5%; D = -63%

Bioassay records: PubChem BioAssay, National Center for Advancing Translational Sciences (NCATS)

An excerpt, so the mix of outcomes need not match the whole.
